Screens deposited in PubChem by National Center for Advancing Translational Sciences (NCATS).
Marburg entry inh: inhibitors of Marburg virus binding or cell entry; hit rate 1.8% among 300,000; Marburg virus pseudotyped entry inhibition, cell reporter; control for the full effect not named in the record; about a third of the inactives were read at about 46 µM; Potency, µM (series often up to 37.8 µM), without a hit: at the highest dose activity change, negative = inhibition, hits mostly inhibitors; active = well fitted inhibition curve with a large enough effect; inconclusive = small, poorly fitted or top-dose-only effect, or effect the other way; inactive = flat fitted curve, though single readings scatter; tested in HEK293 cells; about a fifth of its hits are not listed in these tables; also: % is scaled to controls: 0 for no effect and ±100 for the full control effect; luciferase read-out
Cruzain inh noDet: blocks cruzain activity in detergent-free assay; P25779; purified cruzain, Z-FR-AMC fluorescence, no detergent; Potency, µM, inactives show max response, negative = inhibition, hits mostly inhibitors; hit rate 2.3% among 200,000; AID 1476;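 also: plate controls were enzyme without inhibitor for no effect and buffer without enzyme for full effect; nearly all actives have a fitted effect of over 40% in size; top concentration of the series not given in the record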
Target sequence (P25779 123-467 limits assumed): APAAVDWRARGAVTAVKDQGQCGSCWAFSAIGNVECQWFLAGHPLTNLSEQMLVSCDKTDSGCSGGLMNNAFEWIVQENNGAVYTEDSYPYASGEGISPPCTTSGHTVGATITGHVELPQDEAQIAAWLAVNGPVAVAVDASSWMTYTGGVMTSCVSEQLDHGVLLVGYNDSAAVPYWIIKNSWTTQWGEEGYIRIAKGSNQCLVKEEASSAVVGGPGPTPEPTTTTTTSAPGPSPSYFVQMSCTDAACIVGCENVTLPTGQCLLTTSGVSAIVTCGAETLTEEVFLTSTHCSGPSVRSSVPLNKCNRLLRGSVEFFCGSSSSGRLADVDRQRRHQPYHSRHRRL
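Detergent-free condition (0.00005% Triton X-100) in acetate buffer pH 5.5 with DTT. 1.5 nM enzyme and compound were pre-mixed 15 min, then 2 uM Z-FR-AMC substrate added; reaction progress from fluorescence change between first and third reads (60 s).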
StopGo reporter: FMDV 2A StopGo reporter, luciferase signal; human cells with a luciferase reporter of 2A StopGo recoding; control for the full effect not named in the record; Potency, µM (highest dose often 57.9 µM), for the others: at the top dose signal change, negative = less light; hit rate 1.2% among 410,000; AID 1159524; active = well fitted falling curve with a large enough effect; inconclusive = small, poorly fitted or top-dose-only effect; inactive = no such curve, though single readings can be large or run the other way; tested in HEK293T cells; also: % is scaled to controls: 0 for no effect and ±100 for the full control effect; nearly all actives have a fitted effect of over 45% in size; luciferase light after 4 h
NS1 inh: inhibitors of influenza NS1 protein function; S. cerevisiae slowed by influenza A NS1, growth recovery by OD600; Potency, µM (highest dose often 46.1 µM), for the others: at the highest dose activity, positive = more growth; hit rate 0.4% among 270,000; active means well fitted rising curve with a large enough effect; inconclusive means small, poorly fitted or top-dose-only effect; inactive means no such curve, though single readings can be large or run the other way; also: nearly all actives have a fitted effect of over 50% in size
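S. cerevisiae expressing influenza A NS1, grown in glucose, washed, then diluted 1:100 into pH 6.0 -URA galactose medium with 23 nl compound. Growth recovery read as OD600; NS1-free strain serves as control.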
RE007 growth inh: less growth of the S. pombe RE007 Vpr strain; S. pombe RE007 Vpr strain, BacTiter-Glo ATP luminescence, 24 h; control for the full effect not named in the record; Potency, µM (doses to about 92.2 µM), for inactives: top-dose activity change, negative = less growth; hit rate 0.21% among 360,000; AID 651644; active = well fitted falling curve with a large enough effect; inconclusive = small, poorly fitted or top-dose-only effect; inactive = no such curve, though single readings can be large or run the other way;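 also: % is scaled to controls: 0 for no effect and ±100 for the full control effect; nearly all actives have a fitted effect of over 50% in size; the assay follows cell death caused by Vpr and the record does not say whether a fall means rescue or toxicity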
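Fission yeast strain RE007, carrying one chromosomally integrated HIV-1 vpr copy, was seeded at OD 0.01 in PMG+AL medium with 23 nL pinned compound. After 24 h at 30 °C and 99% humidity, viability was read by BacTiter-Glo luminescence.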
Lassa entry inh: blocks Lassa virus binding to or entry into cells; Lassa virus pseudotype entry inhibition, cell reporter; control for the full effect not named in the record; Potency, µM (highest dose often 37.9 µM), for inactives: top-dose activity change, negative = inhibition, hits mostly inhibitors; hit rate 1.2% among 300,000; AID 540256; active means well fitted inhibition curve with a large enough effect; inconclusive means small, poorly fitted or top-dose-only effect, or effect the other way; inactive means flat fitted curve, though single readings scatter; tested in HEK293 cells; also: % is scaled to controls: 0 for no effect and ±100 for the full control effect; nearly all actives have a fitted effect of over 50% in size; luciferase read-out
Cruzain Triton: blocks cruzain activity in presence of Triton detergent; Potency, µM, inactives show max response, negative = inhibition, actives largely listed as inhibitors; AID 1478; hit rate 0.43% among 200,000; purified cruzain, Z-FR-AMC fluorescence, 0.01% Triton;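 also: plate controls were neutral wells for no effect and buffer without enzyme for full effect; nearly all actives have a fitted effect of over 40% in size; top concentration of the series not given in the record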
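Detergent-containing arm of a paired screen for aggregation-based inhibition: 0.01% Triton X-100 present. Cruzain at 1.5 nM cleaved 2 uM Z-FR-AMC at pH 5.5 with 5 mM DTT; AMC fluorescence gain over 60 s measured activity.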
SARS PLpro yeast: blocks SARS-CoV papain-like protease in a yeast assay; S. cerevisiae expressing SARS-CoV PLpro, growth rescue; control for the full effect not named in the record; Potency, µM (series often up to 32.9 µM), without a hit: at the top dose activity, positive = growth rescue; hit rate 0.19% among 330,000; active means well fitted rising curve with a large enough effect; inconclusive means small, poorly fitted or top-dose-only effect; inactive means no such curve, though single readings can be large or run the other way; also: 0% is about no effect; nearly all actives have a fitted effect of over 55% in size; growth read by luminescence after 48 h
Numbers without * were called inactive; ? = inconclusive; nt = not tested or not shown; & = joins results of further samples; [ ] = another dose, or the depositor's remark. Unless noted, calls follow the shape of the dose curve; as a rule, active = well fitted curve in the direction sought with a large enough effect; inconclusive = small, poorly fitted or top-dose-only effect, or another doubt; inactive = no such curve, though single readings can be large; an effect the other way counts as inactive or inconclusive. Potency is read from the fitted curve at half-maximal effect.

The line under a structure holds: Marburg entry inh	Cruzain inh noDet	StopGo reporter	NS1 inh	RE007 growth inh	Lassa entry inh	Cruzain Triton	SARS PLpro yeast
O=C(OCC#CCSc1nnc(-c2ccncc2)o1)c1cccs1
 : ?	-12%	-8%	-5%	-20%	9%	-3.3%	24%
CCOc1ccccc1NC(=O)CSc1nnc2ccc(-c3ccccn3)nn12
 : 9%	nt	-5%	nt	-14%	-12%	nt	-3%
NC(=O)C1(Nc2ccc(Cl)cc2)CCCC1
 : 4%[46.1 µM]	nt	-16%	nt	10%	29%[46.1 µM]	nt	nt
COc1cc(OC)cc(C(=O)OCC(=O)NCCCc2ccccc2)c1
 : nt	nt	-13%	-6%	1%	nt	nt	-1%
CC(NC(=O)c1ccccc1NC(=O)CN1CCN(c2ccccc2O)CC1)c1ccccc1 (stereo not drawn)
 : ?	nt	0%	nt	6%	?	nt	-6%
CN(CC(=O)O)S(=O)(=O)c1ccc2c(c1)NC(=O)CC(=O)N2
 : 20%[46.1 µM]	nt	-8%	nt	13%	-10%	nt	-5%
CC(C)(C)OC(=O)N1CCCC(C(=O)Nc2ccc(C(=O)N3CCCCC3)cc2)C1 (stereo not drawn)
 : nt	nt	?	nt	-1%	?	nt	-3%
CCOc1cc(C2/C(=C(/O)c3ccc(OC(C)C)cc3)C(=O)C(=O)N2CCCOC)ccc1O (stereo not drawn)
 : -8%&-8%	9%	5%	19%	7%	-3%	-5.8%	1%
Cc1cc(C)nc(NC(=O)c2ccc([N+](=O)[O-])o2)n1
 : -2%	-2%	-1%	-5%	12%	9%	-3.0%	-1%
CCN1/C(=C/c2ccc3ccccc3[n+]2CC)C=Cc2ccccc21
 : 3.5µM*	-14%	?	-266%	22µM*	5.6µM*	-8.7%	-32%
CN(C(=O)CCn1c(=S)oc2ccccc21)C1CCCCC1
 : -22%[46.1 µM]	nt	?	-1%	?	-15%[46.1 µM]	nt	-1%
Cc1cc(NC(=O)CC(CN(C)S(=O)(=O)c2ccccc2)c2ccccc2)no1 (stereo not drawn)
 : -11%	1%	-4%	-39%	19%	-30%	-2.7%	7%
C=CCNCC(=O)N1N=C(c2ccc3ccccc3c2)CC1c1ccc(OC)cc1 (stereo not drawn)
 : 8.9µM*	nt	-22%	nt	17%	0%	nt	-3%
Cc1occc1C(=O)NC(C)CCc1ccccc1 (stereo not drawn)
 : 1%	-6%	-9%	-231%	?	5%	-0.7%	-22%
N#Cc1c(N2C(=O)c3ccc(C(=O)O)cc3C2=O)sc2c1CCCC2
 : -1%	nt	-6%	18%	2%	1%	nt	-2%
CC1=C(C)CS(=O)N(S(=O)(=O)c2ccccc2)C1 (stereo not drawn)
 : 13µM*	-24%	?	23%	-8%	10%	-26%	-31%
CC(/C=N/NC(=O)c1ccc(Br)cc1)=C\c1ccccc1
 : ?	?	nt	-2%	-7%	0%	2.5%	2%
Cc1nc2sc(C(c3ccccc3)N3CCN(C(=O)c4ccco4)CC3)c(O)n2n1 (stereo not drawn)
 : -3%	14%	nt	1%	19%	-34%	-3.5%	?
O=C(COC(=O)CNC(=O)c1cccc([N+](=O)[O-])c1)Nc1cccc(S(=O)(=O)N2CCCCC2)c1
 : -1%	-4%	-15%	-3%	2%	-15%	?	-6%
CCN(CC)S(=O)(=O)c1ccc(OC)c(NC(=O)CSc2cc(C)ccc2C)c1
 : ?	-1%	4%	23%	7%	0.21µM*	-3.9%	8%
O=C(O)c1ccc(-c2ccc(Cl)cc2Cl)o1
 : 20%	1%	17%	-127%	19%	?	-2.6%	-1%
Cc1ccc(CN2CC(C(=O)Nc3ccc(C)c(S(=O)(=O)N4CCCCC4)c3)CC2=O)cc1 (stereo not drawn)
 : ?	nt	-11%	nt	21%	?	nt	nt
COc1ccc(/C=C2\SC(=O)N(CCC(=O)NC3CCS(=O)(=O)C3)C2=O)cc1 (stereo not drawn)
 : ?	nt	17%	-18%	5%	-21%[46.1 µM]	nt	-3%
O=C1c2ccccc2C2(c3ccc(F)cc3)NCCN12 (stereo not drawn)
 : -4%[46.1 µM]	nt	4%	3%	-10%	0%[46.1 µM]	nt	-1%
O=C(COc1ccc(Cl)cc1Cl)N/N=C1\CCCc2ccccc21
 : -6%	9%	-2%	0%	-4%	-2%	-3.2%	1%
CCCC(=O)Nc1ccccc1NC(=O)CCC
 : 4%	-15%	-1%	4%	-14%	-18%	0.3%	0%
CC(C)(C)c1ccc(OCC(=O)NNC(=S)NC(=O)c2ccccc2[N+](=O)[O-])c(Br)c1
 : ?	-4%	-9%	?	-14%	-30%	-9.0%	5%
C#CCNC(=O)C1=C[C@H](c2ccccc2)[C@@H](CCCO)[C@H](OCC)O1
 : nt	nt	-22%	3%	-3%	nt	nt	1%
CC(=O)c1ccc(OCCCC(=O)N2CCN(S(=O)(=O)c3ccc(C)cc3C)CC2)cc1
 : ?	nt	?	nt	-24%	-4%	nt	2%
Cc1ccc(S(=O)(=O)N(CC(=O)N(C)C)c2cccc([N+](=O)[O-])c2)cc1
 : -29%[46.1 µM]	nt	-1%	nt	1%	16%	nt	0%

3 neighbouring entries already listed, quoted:
The line under a structure holds: Marburg entry inh	Cruzain inh noDet	StopGo reporter	NS1 inh	RE007 growth inh	Lassa entry inh	Cruzain Triton	SARS PLpro yeast
O=C(O)c1ccc(-c2ccc(Cl)cc2Cl)o1
 : 20%	1%	17%	-127%	19%	?	-2.6%	-1%
Cc1ccc(CN2CC(C(=O)Nc3ccc(C)c(S(=O)(=O)N4CCCCC4)c3)CC2=O)cc1 (stereo not drawn)
 : ?	nt	-11%	nt	21%	?	nt	nt
COc1ccc(/C=C2\SC(=O)N(CCC(=O)NC3CCS(=O)(=O)C3)C2=O)cc1 (stereo not drawn)
 : ?	nt	17%	-18%	5%	-21%[46.1 µM]	nt	-3%

(continued)
The line under a structure holds: Marburg entry inh	Cruzain inh noDet	StopGo reporter	NS1 inh	RE007 growth inh	Lassa entry inh	Cruzain Triton	SARS PLpro yeast
COC(=O)c1ccc(CSc2nc3ccccc3c(=O)n2CC(C)C)o1
 : 1%	9%	-15%	-4%	-6%	2%	-5.4%	-9%
CCOc1ccc(Br)cc1S(=O)(=O)N1CCCC1
 : 2%	-3%	-4%	-13%	0%	?	-0.5%	10%
CCCN1CN(CCc2ccccc2)CNC1=S
 : -12%	-13%	-21%	-6%	-6%	?	8.2%	?
O=C(Cc1c(Cl)cccc1Cl)NCCc1ccc(Cl)cc1
 : -1%	?	15%	-1%	-15%	?	0.6%	-7%
CC1(C)CC(=O)/C(=C(/O)CCCN2C(=O)c3ccccc3C2=O)C(=NC(C)(C)C)C1
 : 25%[46.1 µM]	nt	3%	nt	-2%	16%	nt	-9%
COc1ccccc1C(=O)Nc1cc2cc(Cl)ccc2oc1=O
 : -19%	?	49%[activator]	9%	-2%	-5%	23%	-5%
CC1CCN(C(=O)C2CCN(S(=O)(=O)c3cccc4cccnc34)CC2)CC1
 : 16%[46.1 µM]	nt	-14%	0%	8%	25%[46.1 µM]	nt	2%
COC(=O)c1ccc(/C=C2\CCn3c2nc2cc(C(=O)O)ccc2c3=O)cc1
 : 11%[46.1 µM]	nt	-5%	7%	-8%	7%	nt	0%
CN(C)S(=O)(=O)N(CC(=O)N1CCC(Cc2ccccc2)CC1)c1ccccc1
 : ?	nt	2%	-2%	0%	?	nt	-1%
Cc1cc2ncn(C(=O)c3c(-c4ccccc4Cl)noc3C)c2cc1C
 : 0%	14%	-14%	-102%	9%	-5%	-13%	-7%
Cc1nn(CCC#N)c(NC(=O)c2ccc(Cl)cc2)c1P(=O)(Nc1ccc([N+](=O)[O-])cc1)N1CCOCC1 (stereo not drawn)
 : 0%	-3%	8%	-5%	17%	0%	0.8%	-2%
O=C(CN(c1cccc(C(F)(F)F)c1)S(=O)(=O)c1ccc(Cl)c([N+](=O)[O-])c1)NCc1ccc(F)cc1
 : ?	?	?	0%	-18%	?	-7.3%	4%
CN(C)C(=O)c1ccc2c(c1)C1C3CCC(C3)C1C(c1ccccc1)N2 (stereo not drawn)
 : -34%	9%	?	-15%	-27%	?	-5.4%	-54%
Cc1nc(NC(=O)CN2CC(C)OC(C)C2)sc1C(=O)N(C)C (stereo not drawn)
 : 2%[46.1 µM]	nt	-9%	-15%	-2%	28%[46.1 µM]	nt	1%
NC(=O)CC(NC(=O)c1ccc(Br)cc1)c1ccc(NCCc2ccc(F)cc2)c([N+](=O)[O-])c1 (stereo not drawn)
 : 4%	nt	-17%	4%	-3%	nt	nt	-3%
O=C1NC(=O)C(CC(=O)N(Cc2ccco2)C2(C(=O)NC3CCCCC3)CCCCC2)N1 (stereo not drawn)
 : ?	6%	-14%	4%	13%	-8%	0.2%	6%
COc1ccc(C(=O)CC(=O)c2ccc(C)cc2)c(O)c1
 : 1%[46.1 µM]	nt	37%[activator]	-8%	-15%	18%[46.1 µM]	nt	1%
COc1ccc(OC)c(NC(=O)CSc2cn(CC(=O)N3CCOCC3)c3ccccc23)c1
 : nt	23%	-6%	nt	nt	11%[46.1 µM]	-2.1%	nt
CCOc1ccccc1C1CC(=O)Nc2cc3c(cc21)OCO3 (stereo not drawn)
 : 0%	-9%	10%	-16%	11%[3.69 µM]	11%	2.6%	4%
O=C(c1ccc(-n2c(SCc3cc(F)ccc3F)nc3ccccc3c2=O)cc1)N1CCOCC1
 : ?	?	-11%	-3%	8%	?	-7.2%	-4%
CCC1CCCCN1S(=O)(=O)c1ccccc1 (stereo not drawn)
 : -4%[46.1 µM]	nt	-11%	-9%	-3%	9%[46.1 µM]	nt	2%
CCN1CCN(P2(=O)C=C(c3ccccc3)OC(c3ccccc3)=C2)CC1
 : ?	0%	nt	-7%	-3%	-28%	3.1%	-1%
COc1ccc(/C=C(/NC(=O)c2ccco2)C(=O)N2CCOCC2)cc1
 : nt	nt	12%	-4%	-4%	nt	nt	4%
Cc1onc(-c2c(Cl)cccc2Cl)c1NC(=O)NNc1ccccn1
 : nt	nt	10%	0%	1%	nt	nt	1%
